NOMO-1 viab: STK33 inhibitor candidate reducing NOMO-1 cell viability. hit rate 7.5% among 37,000. NOMO-1 AML viability, CellTiter-Glo luminescence, 72 h. AID 2330. inhibition, % (test concentration not listed);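 active = most replicates above 80%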;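 also: wells of about 30 µL received 25 nL stock; 0% = median of vehicle wells and 100% = reference inhibitor level; the first replicate is given; inactives centre near 10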
Active calls of the source: *. A portion of the library; rates above refer to the full screens.

molecule,NOMO-1 viab
C/C=C(/C)C(=O)O[C@H]1[C@H](OC(=O)/C=C/c2ccccc2)[C@@]23C(CC1(C)C)[C@]1(CCC4[C@@]5(C)CC[C@H](O[C@@H]6O[C@H](C(=O)O)[C@@H](O)[C@H](O[C@@H]7O[C@H](CO)[C@H](O)[C@H](O)[C@H]7O[C@@H]7O[C@@H](C)[C@H](O)[C@@H](O)[C@H]7O[C@@H]7OC[C@](O)(CO)[C@H]7O)[C@H]6O[C@@H]6O[C@H](CO)[C@H](O)[C@H](O)[C@H]6O)C(C)(C)C5CC[C@@]4(C)[C@]1(C)C[C@H]2O)O[C@H]3O (some centres not stated),120*
CNC[C@@H]1Oc2ccc(NC(=O)C3CC3)cc2C(=O)N([C@@H](C)CO)C[C@@H]1C,1
C[C@@H]1CN([C@H](C)CO)C(=O)c2cc(NS(=O)(=O)c3ccc(F)cc3)ccc2O[C@@H]1CN(C)C(=O)Nc1cccc2ccccc12,15
COc1ccc(S(=O)(=O)N(C)C[C@@H]2Oc3ccc(NC(=O)Cn4cnnn4)cc3CC(=O)N([C@H](C)CO)C[C@@H]2C)cc1,-1
COc1ccccc1-c1cc(C(F)F)n2ncc(C(=O)NCc3cccnc3)c2n1,42
C[C@@H]1CCCCO[C@H](CN(C)S(C)(=O)=O)[C@@H](C)CN([C@H](C)CO)C(=O)c2cc(NC(=O)NC3CCCCC3)ccc2O1,-12
Cc1noc(C)c1NC(=O)Nc1ccc2c(c1)CC(=O)N([C@@H](C)CO)C[C@H](C)[C@H](CN(C)S(=O)(=O)c1ccc(F)cc1)O2,6
CNC[C@@H]1Oc2ccc(NS(=O)(=O)c3ccccc3)cc2CC(=O)N([C@@H](C)CO)C[C@@H]1C,-23
C[C@H]1CN([C@@H](C)CO)C(=O)c2cc(NC(=O)Nc3ccc(C(F)(F)F)cc3)ccc2O[C@@H]1CN(C)S(=O)(=O)c1cccs1,94*
CC(C)NC(=O)Nc1ccc2c(c1)C(=O)N([C@@H](C)CO)C[C@H](C)[C@@H](CN(C)Cc1ccc(C(F)(F)F)cc1)O2,10
COc1ccc(NC(C)=O)cc1C,17
O=C(Nc1ccc(I)cc1C(=O)NCc1cccnc1)c1ccc(Cl)cc1Cl,-5
Cn1c(=O)c2c(nc(NCc3cccnc3)n2Cc2ccc(Cl)cc2Cl)n(C)c1=O,37
Cc1ccc(Nc2nc(Nc3ccc(C)cc3)nc(Sc3nnc(C)s3)n2)cc1,20
C[C@@H]1CCCCO[C@H](CN(C)CC2CCCCC2)[C@@H](C)CN([C@H](C)CO)C(=O)c2cc(NS(=O)(=O)c3ccccc3)ccc2O1,21
C[C@H]1CN([C@@H](C)CO)C(=O)c2cc(NC(=O)c3ccncc3)ccc2O[C@@H]1CN(C)C,-3
CC(C)NC(=O)Nc1cccc2c1O[C@H](CN(C)S(=O)(=O)c1cccs1)[C@H](C)CN([C@H](C)CO)C2=O,-12
Cc1cc(C)c(C#N)c(SCC(=O)N2CCCCC2)n1,-6
CCC(Sc1nncn1C)C(=O)Nc1ccc(-c2nc3ccc(C)cc3s2)cc1 (configuration not stated),28
COc1ccc(S(=O)(=O)Nc2ccc3c(c2)CC(=O)N([C@H](C)CO)C[C@@H](C)[C@H](CN(C)Cc2ccc4c(c2)OCO4)O3)cc1,14
COc1ccc(C)cc1N(CC(=O)Nc1c(C)n(C)n(-c2ccccc2)c1=O)S(C)(=O)=O,-3
COc1ccc(S(=O)(=O)c2ccc(OC)cc2)cc1,30
Cc1noc(C)c1NC(=O)Nc1cccc2c1O[C@@H](CN(C)Cc1ccccc1)[C@H](C)CN([C@H](C)CO)C2=O,45
COc1ccc(NC(=O)N(C)C[C@H]2Oc3c(NC(=O)Nc4ccc(F)cc4)cccc3C(=O)N([C@@H](C)CO)C[C@H]2C)cc1,15
CS(=O)(=O)CCC(C(=O)N1CCCCC1)N1C(=O)c2cc(Cl)c(Cl)cc2C1=O (configuration not stated),12
C[C@H](CO)N1C[C@H](C)[C@@H](CN(C)Cc2ccc(C(F)(F)F)cc2)Oc2c(NS(=O)(=O)c3ccccc3)cccc2C1=O,25
Cc1ccc(-c2noc(CCC(=O)Nc3cccc([N+](=O)[O-])c3)n2)cc1,10
CCSC1=N/C(=C\c2ccc(C(=O)O)cc2)C(=O)S1,28
COC(=O)c1cc(=O)n2c(c1C(=O)c1ccc(Cl)cc1)SCC2,66
Cc1cc(Br)ccc1NC(=O)C(=O)NCCCN1CCOCC1,-15
O=C(CC1(O)C(=O)N(Cc2cccc3ccccc23)c2ccccc21)c1ccco1 (configuration not stated),111*
Cc1ccc(S(=O)(=O)Nc2cccc3c2O[C@H](CN(C)Cc2ccccc2)[C@@H](C)CN([C@@H](C)CO)C3=O)cc1,18
C[C@H]1CN([C@@H](C)CO)C(=O)c2cccc(NS(=O)(=O)c3cccs3)c2O[C@H]1CN(C)C(=O)Nc1ccccc1,14
O=C(Cn1cnc2scc(-c3cccc([N+](=O)[O-])c3)c2c1=O)Nc1cccc(C(F)(F)F)c1,31
CCN(CC)CCSc1nnc2c3cc(C)ccc3n(C)c2n1,17
C[C@@H]1CN([C@H](C)CO)C(=O)Cc2cc(NC(=O)Cc3cn(C)c4ccccc34)ccc2O[C@@H]1CN(C)C(=O)Nc1ccc(F)cc1,21
O=C(COc1ccc2ccccc2c1Br)NCc1ccccn1,-5
C[C@@H]1CN([C@H](C)CO)C(=O)Cc2cc(NC(=O)Cn3cnnn3)ccc2O[C@@H]1CN(C)Cc1ccc(-c2ccccc2)cc1,31
CN(C)c1nc(OCC(=O)NC(C)(C)C)nc(N(C)C)n1,-16
CNC[C@@H]1Oc2ccc(NS(=O)(=O)c3cn(C)cn3)cc2C(=O)N([C@@H](C)CO)C[C@H]1C,-9
C=C1C(=O)O[C@@H]2C=C(C)[C@@H]3CC[C@@](C)(O)[C@@H]3C[C@H]12,38
COc1cccc(C(=O)c2oc3ccccc3c2NC(=O)CCc2ccccc2)c1,1
Cc1cc(NS(=O)(=O)c2ccc(NC(=O)NC(C)(C(F)(F)F)C(F)(F)F)cc2)no1,12
COc1ccc(OC)c(NC(=O)CSc2nnc(-c3cccnc3)s2)c1,110*
C=CCn1c(SCC(=O)c2c(C)[nH]c3ccccc23)nc2sc3c(c2c1=O)CCC3,7
C[C@H]1CN([C@@H](C)CO)C(=O)c2cccc(NC(=O)Nc3ccc(F)cc3)c2O[C@@H]1CN(C)Cc1ccc(C(=O)Nc2ccccc2N)cc1,140*
C[C@@H]1CN([C@H](C)CO)C(=O)Cc2cc(NC(=O)Nc3ccc(C(F)(F)F)cc3)ccc2O[C@H]1CN(C)C(=O)Nc1cccc2ccccc12,27
C[C@@H]1CCCCO[C@@H](CN(C)C(=O)Nc2ccc(F)cc2)[C@@H](C)CN([C@H](C)CO)C(=O)c2cc(NC(=O)Nc3ccc4c(c3)OCO4)ccc2O1,12
C[C@@H]1CN([C@@H](C)CO)C(=O)Cc2cc(NC(=O)NC3CCCCC3)ccc2O[C@@H]1CN(C)Cc1ccccc1,4
COc1ccc(Cc2nnc(SCC(=O)Nc3ccc(OC)cc3)o2)cc1,18
Cc1cc(N(CC(=O)Nc2ccccc2C(=O)N2CCOCC2)S(C)(=O)=O)ccc1Br,6
CN(C)S(=O)(=O)N(CC(=O)Nc1c(F)cccc1F)c1ccccc1,-6
COC(=O)CN1C(=O)CN(c2nc(C)cc(C)n2)C1=O,34
C[C@@H]1CCCCO[C@@H](CN(C)S(=O)(=O)c2cccs2)[C@@H](C)CN([C@H](C)CO)C(=O)c2cc(NS(=O)(=O)c3ccccc3)ccc2O1,59
COc1cc(C(=O)Nc2sc3c(c2C(=O)NCc2ccco2)CCCC3)cc(OC)c1OC,21
NC(=O)c1c(NC(=O)Cn2c(=O)oc3ccccc32)sc2c1CCCC2,-22
COc1ccc(S(=O)(=O)Nc2ccc3c(c2)CC(=O)N([C@H](C)CO)C[C@@H](C)[C@H](CN(C)S(=O)(=O)c2ccc(OC)cc2)O3)cc1,4
O=C(Nc1sc2c(c1C(=O)NCc1ccco1)CCCC2)c1ccc(Cl)cc1Cl,4
COc1ccc(S(=O)(=O)Nc2ccc3c(c2)C(=O)N([C@@H](C)CO)C[C@@H](C)[C@@H](CN(C)C)O3)cc1,12
C[C@@H]1CN([C@@H](C)CO)C(=O)Cc2cc(NC(=O)Nc3ccccc3)ccc2O[C@@H]1CN(C)Cc1ccncc1,14

Next section; it opens with the 7 that closed the last part.
molecule,NOMO-1 viab
C[C@@H]1CCCCO[C@@H](CN(C)S(=O)(=O)c2cccs2)[C@@H](C)CN([C@H](C)CO)C(=O)c2cc(NS(=O)(=O)c3ccccc3)ccc2O1,59
COc1cc(C(=O)Nc2sc3c(c2C(=O)NCc2ccco2)CCCC3)cc(OC)c1OC,21
NC(=O)c1c(NC(=O)Cn2c(=O)oc3ccccc32)sc2c1CCCC2,-22
COc1ccc(S(=O)(=O)Nc2ccc3c(c2)CC(=O)N([C@H](C)CO)C[C@@H](C)[C@H](CN(C)S(=O)(=O)c2ccc(OC)cc2)O3)cc1,4
O=C(Nc1sc2c(c1C(=O)NCc1ccco1)CCCC2)c1ccc(Cl)cc1Cl,4
COc1ccc(S(=O)(=O)Nc2ccc3c(c2)C(=O)N([C@@H](C)CO)C[C@@H](C)[C@@H](CN(C)C)O3)cc1,12
C[C@@H]1CN([C@@H](C)CO)C(=O)Cc2cc(NC(=O)Nc3ccccc3)ccc2O[C@@H]1CN(C)Cc1ccncc1,14
CCOC(=O)c1c(NC(=S)NC(C)C2CCCO2)sc2c1CCCC2 (configuration not stated),36
CCCCn1c(NCc2ccc(OC)cc2O)nc2ccccc21,6
Cc1cccc(NC(=S)N2CCCCC2)c1,-7
C[C@H]1CN([C@@H](C)CO)C(=O)c2cc(NC(=O)C3CCCCC3)ccc2O[C@@H]1CN(C)C(=O)Nc1ccc(C(F)(F)F)cc1,4
COc1ccc(C2C(C#N)=C(N)Oc3cc(C)n(CCc4ccc(OC)c(OC)c4)c(=O)c32)cc1 (configuration not stated),1
Cn1c(CN2CCCC2)nc2cc(NC(=O)COc3ccc(Cl)cc3)ccc21,29
CC(C)n1c(-c2ccccc2)nc2ccccc21,0
C[C@@H]1CN([C@H](C)CO)C(=O)c2cc(NC(=O)Nc3ccc(F)cc3)ccc2O[C@H]1CN(C)S(C)(=O)=O,27
O=C(CCn1cnc2ccccc2c1=O)Nc1cccc(C(=O)c2ccccc2)c1,6
CN(CC(=O)Nc1ccccc1-c1ccccc1)S(=O)(=O)c1ccc2ccccc2c1,20
COc1ccc(S(=O)(=O)Nc2ccc3c(c2)C(=O)N([C@H](C)CO)C[C@H](C)[C@@H](CN(C)Cc2ccc(C(=O)O)cc2)OCCCC[C@@H](C)O3)cc1,-7
COc1ccc(CN(C)C[C@@H]2Oc3c(NC(=O)c4cc(C)nn4C)cccc3C(=O)N([C@H](C)CO)C[C@@H]2C)cc1,7
CC(C)NC(=O)N(C)C[C@H]1Oc2ccc(NC(=O)Cn3cnnn3)cc2CC(=O)N([C@@H](C)CO)C[C@H]1C,-8
C[C@H]1CN([C@@H](C)CO)C(=O)Cc2cc(NC(=O)CCC(F)(F)F)ccc2O[C@H]1CN(C)C(=O)Nc1cccc2ccccc12,-1
CC1(C)C=CC(=O)[C@@]2(C)C1CC(=O)[C@]1(C)C2CC[C@@]2(C)[C@H](c3ccoc3)OC(=O)C3OC321 (some centres not stated),31
Cc1ccc2oc(-c3ccc(NC(=O)Cn4c(=O)oc5ccccc54)cc3)nc2c1,11
C[C@H]1CN([C@@H](C)CO)C(=O)c2cccc(NC(=O)c3cnccn3)c2O[C@H]1CN(C)C(=O)Nc1cccc2ccccc12,16
Cc1ccnc(SCC(=O)Nc2cccc3ccccc23)n1,6
COc1ccc(S(=O)(=O)N(C)C[C@@H]2Oc3ccc(NS(C)(=O)=O)cc3CC(=O)N([C@H](C)CO)C[C@H]2C)cc1,-21
O=C(Nc1cccc2cccnc12)c1ccccc1S(=O)(=O)c1ccc([N+](=O)[O-])cc1,11
CC(C)NC(=O)N(C)C[C@H]1Oc2c(NC(=O)c3ccc(-c4nccs4)cc3)cccc2C(=O)N([C@H](C)CO)C[C@H]1C,17
Cc1ccc(C)c(OCC(=O)Nc2c[nH]c(=O)[nH]c2=O)c1,-9
Cc1cc(Cl)ccc1OCC(=O)Nc1ccccc1-c1nc2ccccc2s1,22
CC1(C)CC[C@]2(C(=O)O)CC[C@]3(C)C(=CCC4[C@@]5(C)CC[C@H](O[C@@H]6O[C@H](CO)[C@@H](O)[C@H](O)[C@H]6O)C(C)(C)C5CC[C@]43C)[C@@H]2C1 (some centres not stated),120*
Cc1cc(C(=O)Nc2cccc3c2O[C@@H](CN(C)Cc2ccncc2)[C@@H](C)CN([C@@H](C)CO)C3=O)n(C)n1,19
C[C@@H]1CN([C@@H](C)CO)C(=O)c2cc(NC(=O)Cc3cn(C)c4ccccc34)ccc2O[C@@H]1CN(C)Cc1ccccc1,63
O=C(O)c1ccc(CSc2nnc(-c3cccnc3)n2-c2ccc(Br)cc2)cc1,-6
C[C@@H]1CN([C@@H](C)CO)C(=O)c2cc(NC(=O)C3CC3)ccc2O[C@H]1CN(C)Cc1ccc(C(=O)O)cc1,-1
CCOC(=O)c1ccc(NC(=O)CSc2nc(C)cc(C(F)(F)F)n2)cc1,25
Cc1ccc(S(=O)(=O)Nc2cccc3c2O[C@@H](CN(C)S(=O)(=O)c2c(C)noc2C)[C@@H](C)CN([C@H](C)CO)C3=O)cc1,-5
C[C@H](CO)N1C[C@H](C)[C@H](CN(C)C)Oc2c(NS(=O)(=O)c3ccc(Cl)cc3)cccc2C1=O,18
CC(=O)c1cccc(NC(=O)COc2ccccc2C(=O)Nc2ccc3c(c2)oc2ccccc23)c1,28
COc1ccc(NC(=O)COc2ccccc2[N+](=O)[O-])cc1Cl,22
Cc1cc(C)c(C)c(S(=O)(=O)NCc2ccc(C(=O)Nc3ccncc3)cc2)c1C,103*
